# Assay outcomes deposited in PubChem by Vanderbilt University.
# GIRK2 activ – opens human GIRK2 potassium channels; calls only for hits at 25 µM; hit rate 0.05% among 63,000; HEK293-GIRK2 thallium flux, Thallos fluorescence; P48051;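 active means among the strongest 0.2% of first-round signals and kept after retests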;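 further: first round at about 10 µM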
# Target sequence (P48051 whole entry, looked up): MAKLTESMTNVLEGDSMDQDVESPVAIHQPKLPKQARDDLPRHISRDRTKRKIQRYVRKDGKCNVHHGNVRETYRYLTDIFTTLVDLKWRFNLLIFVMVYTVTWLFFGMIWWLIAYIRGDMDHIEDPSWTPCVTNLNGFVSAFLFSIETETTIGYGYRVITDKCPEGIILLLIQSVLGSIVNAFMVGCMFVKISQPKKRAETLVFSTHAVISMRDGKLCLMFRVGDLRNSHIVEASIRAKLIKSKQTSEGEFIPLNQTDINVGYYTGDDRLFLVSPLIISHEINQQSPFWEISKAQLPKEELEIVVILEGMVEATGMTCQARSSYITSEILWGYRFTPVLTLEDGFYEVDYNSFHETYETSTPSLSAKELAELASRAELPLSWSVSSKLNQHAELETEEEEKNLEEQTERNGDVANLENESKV
# Calls only; i = inactive. The list is partial (hit frequency here may not be typical).
GIRK2 activ	Compound
i	O=C(NCc1ccc(Cl)cc1)N1CC(c2nc3ccccc3[nH]2)C1
i	CCOc1ccc(-c2ccc(=O)n(CCNS(=O)(=O)c3ccccc3F)n2)cc1
i	CC(=O)Cn1c(=O)c2c(nc3n(-c4ccc(Cl)cc4)c(C)cn23)n(C)c1=O
i	Cc1ccc(Cl)cc1NC(=O)Cn1cccc(S(=O)(=O)N2CCCCCC2)c1=O
i	C=C(C)Cn1c(=O)c2c(nc3n2C(C)C(C)=NN3CC)n(C)c1=O (centres undefined)
i	O=C(CN1CC(c2nc(-c3cccs3)no2)C1)N1CCC(Cc2ccccc2)CC1
i	O=C(NCCc1ccoc1)C(=O)Nc1ccccc1Cl
i	Cc1ccc(-c2ccc3nnc(CCC(=O)NCc4cccc(Br)c4)n3n2)cc1
i	COc1ccc(NC(=O)c2ccc(S(=O)(=O)N(C)C)cc2)cc1
i	CCOc1ccc(-n2nnc(-c3nc(-c4ccccc4OCC)no3)c2C)cc1
i	COCCNC(=O)CSc1nc(-c2ccc(OC)c(OC)c2)[nH]c1-c1ccc(C)cc1
i	CC1CCCN(c2nc3ncnc(SCC(=O)Nc4ccccc4C(N)=O)c3s2)C1 (centres undefined)
i	COc1ccc(-c2noc(Cn3nc4ccc(-c5ccccc5)nn4c3=O)n2)cc1
i	N#Cc1nc(-c2ccc(Cl)cc2)oc1N1CCN(C(=O)c2ccccc2Cl)CC1
i	O=C(Cn1nc(-c2cccs2)c2sc(N3CCOCC3)nc2c1=O)OCc1ccccc1
i	CSc1nnc(-c2ccccc2NC(=O)/C=C/c2cccc(F)c2)o1
i	CC(C)n1c(=O)c2ccccc2n(Cc2nc(-c3cccc(C(F)(F)F)c3)no2)c1=O
i	CC(C)(O)c1nc2ccccc2[nH]1
i	CC1CCCC(C)N1C(=O)c1ccc(CNS(=O)(=O)c2cccc(C(F)(F)F)c2)cc1 (centres undefined)
i	CCOc1ccc(-n2c(SCC(=O)Nc3ncn[nH]3)nc3ccsc3c2=O)cc1
i	Cc1nn(-c2ccccc2)c(C)c1N1CCN(C(=O)Cc2ccc(S(=O)(=O)C(C)C)cc2)CC1
i	O=C(COc1ccc(Br)cc1)Nc1ccc2c(=O)c3ccccc3oc2c1
i	O=C1CCSCC(C(=O)NCc2cccs2)N1 (centres undefined)
i	CCCCn1c(-n2nc(C)cc2C)nc2c1c(=O)n(CC(N)=O)c(=O)n2C
i	CC1=CC2C(=O)[C@]3(O)CCN(c4ccccc4)C3=NC2C=C1 (some centres undefined)

# Four entries already listed, arranged by count of non-hydrogen atoms, largest number first.
GIRK2 activ	Compound
i	Cc1nn(-c2ccccc2)c(C)c1N1CCN(C(=O)Cc2ccc(S(=O)(=O)C(C)C)cc2)CC1
i	O=C(COc1ccc(Br)cc1)Nc1ccc2c(=O)c3ccccc3oc2c1
i	O=C(NCCc1ccoc1)C(=O)Nc1ccccc1Cl
i	CC(C)(O)c1nc2ccccc2[nH]1

# The list continues.
GIRK2 activ	Compound
i	CC(C)(C)c1ccc(S(=O)(=O)NCC2(CO)CC2)cc1
i	CC(=O)c1cccc(NC(=O)CSc2nc3c(c(=O)[nH]2)CN(Cc2ccc(F)cc2)CC3)c1
i	COc1ccc(-c2csc(-n3nc(C)cc3NC(=O)c3ccccc3C)n2)cc1OC
i	Cc1cc(C)c(C(=O)NCC2(c3cccs3)CCOCC2)c(C)c1
i	Cc1noc(C)c1CC(=O)N1CCC(Oc2ncccc2Br)CC1
i	O=C(O)c1cn[nH]c1S(=O)(=O)NCCc1cccs1
i	CN1CCC(CNC(=O)c2cc(Br)ccc2Cl)CC1
i	COc1nn(C)cc1C(=O)NCC(C)(O)c1cccs1 (centres undefined)
i	Cn1c(=O)c2c(nc3n2CCN3c2cccc(OCC(N)=O)c2)n(C)c1=O
i	COc1cccc(C(=O)N2CCN(CCn3ccnc3-c3ccccc3)CC2)c1OC
i	CC1(C)CC(=O)c2cc(C#N)c(=O)n(CC(=O)Nc3ccc(Cl)cc3)c2C1
i	CN(C)c1ncc2c(=O)n(-c3ccccc3)c(=O)[nH]c2n1
i	CN(c1ccccc1)S(=O)(=O)c1ccsc1-c1nc(-c2ccc3c(c2)OCO3)no1
i	Cn1cccc1CN(Cc1cccs1)S(=O)(=O)c1ccc(OC(F)(F)F)cc1
i	C=CCn1c(SCC(=O)NCc2ccco2)nc2sc3c(c2c1=O)CCCCC3
i	O=C(Nc1ccc2c(c1)OCO2)Nc1nnc(-c2ccc(Br)s2)o1
i	Cc1cccc(NC(=O)CSc2nccc(N3CCCCCC3)n2)c1C
i	Cc1cc(NC(=O)C2CCN(C(=O)c3cncc(Br)c3)CC2)no1
i	Cc1ccc(NC(=O)CCSc2nnc3ccccn23)cc1
i	CC(C)NC(=O)CCn1c(=O)c2cc(Cl)ccc2n2c(=O)n(C)nc12
i	CCOc1ccccc1NC(=O)c1ccc(S(=O)(=O)N2CCN(C)CC2)o1
i	Cc1cc(C)n(-c2ccc(N3CCC(C(=O)NC4CCCCC4)CC3)nn2)n1
i	CC(C)S(=O)(=O)c1ccc(CC(=O)N2CCCC(c3nnc(C(F)(F)F)o3)C2)cc1 (centres undefined)
i	COc1ccc(NC(=O)Cc2nnc(-c3sccc3C)o2)cc1Cl
i	COc1cccc2sc(N(C)CC(=O)NCCc3ccc(S(N)(=O)=O)cc3)nc12

# Molecules from the list above that have a cyano group (2):
GIRK2 activ	Compound
i	N#Cc1nc(-c2ccc(Cl)cc2)oc1N1CCN(C(=O)c2ccccc2Cl)CC1
i	CC1(C)CC(=O)c2cc(C#N)c(=O)n(CC(=O)Nc3ccc(Cl)cc3)c2C1

# Random excerpt: 3 records from the list, in no set order.
GIRK2 activ	Compound
i	Cc1cc(NC(=O)C2CCN(C(=O)c3cncc(Br)c3)CC2)no1
i	CC(=O)c1cccc(NC(=O)CSc2nc3c(c(=O)[nH]2)CN(Cc2ccc(F)cc2)CC3)c1
i	Cc1cc(C)c(C(=O)NCC2(c3cccs3)CCOCC2)c(C)c1

# Further compounds:
GIRK2 activ	Compound
i	CN(C)c1ncc(NS(=O)(=O)c2ccc(Cl)c(Cl)c2)cn1
i	O=C(c1ccccc1Br)N1CCN(c2nnnn2-c2ccccc2)CC1
i	O=C(O)c1ccc(S(=O)(=O)NCc2ccccn2)cc1
i	Cc1ccccc1-n1c(-c2cccc([N+](=O)[O-])c2)cnc1SCC#N
i	O=c1c2nnn(Cc3cccc(F)c3)c2ncn1Cc1nc(-c2ccc(OC(F)(F)F)cc2)no1
i	COc1cc(OC)cc(C(=O)Nc2nnc(-c3ccccc3)o2)c1
i	CC(=O)c1cccc(NC(=O)c2cc(=O)c3cc(C)ccc3o2)c1
i	O=S(=O)(Cc1cccc(F)c1)NCC1CCN(S(=O)(=O)c2cccnc2)CC1
i	CCCCCn1c(-n2nc(C)c(C)c2C)nc2c1c(=O)n(CC(=O)OC)c(=O)n2C
i	Cc1nc(N2CCN(C(=O)C(c3ccccc3)c3ccccc3)CC2)cc(-n2cccc2)n1
i	COc1ccc(S(=O)(=O)NCC2(c3ccc(F)cc3)CC2)cc1Cl
i	O=C(/C=C/c1cccs1)N1CCN(C(=O)C2CC2c2ccc(F)cc2)CC1 (centres undefined)
i	COc1ccc(NC(=O)Cn2ccn3nc(-c4ccccc4)cc3c2=O)cc1Cl
i	Cc1ccc(-n2ncc3c(=O)[nH]c(-n4nc(C)cc4NC(=O)c4ccc5c(c4)OCO5)nc32)cc1
i	COc1ccc(-n2nnc(C(=O)Nc3ccc(Cl)cc3Cl)c2C)cc1
i	Cc1cccc(-c2csc3c(=O)[nH]c(N4CCC(C(=O)NC5CCc6ccccc65)CC4)nc23)c1 (centres undefined)
i	O=C1/C(=C/c2ccccc2Cl)Oc2cc(O)ccc21
i	CCOc1ccc(CC(=O)NC2(c3nc(-c4ccccc4)no3)CCCCC2)cc1OCC
i	Cc1cccc(NC(=O)CN2N=NC3C(=O)N(c4ccc(F)c(F)c4)C(=O)C32)c1C (centres undefined)
i	COc1ccc(CNC(=O)N2CCC(CSc3nccn3C)CC2)cc1OC
i	CNC(=O)CSc1nnc(N2CCN(C(=O)C34CC5CC(CC(C5)C3)C4)CC2)s1
i	CCOc1ccccc1C(=O)NC1CCN(C(=O)c2cn(-c3ccc(C)cc3)nn2)CC1
i	O=S(=O)(Cc1ccccc1Cl)Nc1cccc(N2CCCS2(=O)=O)c1
i	COc1cccc(S(=O)(=O)NCC(=O)N2CC(C)OC(C)C2)c1 (centres undefined)
i	CCOc1ccc(CC(=O)NCC(=O)Nc2nc3ccccc3[nH]2)cc1OCC

# Entries from the list above containing a COOH group (two):
GIRK2 activ	Compound
i	O=C(O)c1cn[nH]c1S(=O)(=O)NCCc1cccs1
i	O=C(O)c1ccc(S(=O)(=O)NCc2ccccn2)cc1

# Other compounds follow.
GIRK2 activ	Compound
i	COC(=O)c1ccc(NS(=O)(=O)c2ccc(N3C(=O)CCS3(=O)=O)cc2C)cc1
i	Cn1nc(C(=O)N2CC(c3nc4ccccc4[nH]3)C2)ccc1=O
i	Cn1nc(CNS(=O)(=O)c2ccc3c(c2)OCCO3)c2ccccc2c1=O
i	O=C(O)CCC(=O)Nc1ccc(Cl)cc1-c1nc2ccccc2[nH]c1=O
i	COc1ccc(C2(CNC(=O)c3ccc4ncsc4c3)CCOCC2)cc1
i	O=C(COc1ccccc1)N1CCC(CSc2ccccn2)CC1
i	COc1nc2ccccc2nc1N1CCN(c2ccccc2)CC1
i	O=C(Cn1cnc2nc(N3CCC(C(=O)N4CCCCC4)CC3)sc2c1=O)Nc1cccc(F)c1
i	Cc1ccc(-c2ccc(N3CCN(S(=O)(=O)c4ccccc4Cl)CC3)nn2)c(C)c1
i	CSCC(C)(O)CNC(=O)c1ccc(Cl)cc1 (centres undefined)
i	O=C(NCc1ccc2c(c1)OCO2)c1ccc(S(=O)(=O)N2CCCC2)o1
i	CCCn1c(N2CCN(C(C)=O)CC2)nc2c1c(=O)[nH]c(=O)n2C
i	COc1ccc(C(=O)Nc2cc(C3CC3)nn2-c2nc(C)c(C)c(=O)[nH]2)c(OC)c1
i	COc1ccc(N2CC(C(=O)Nc3ccc4cn[nH]c4c3)CC2=O)cc1 (centres undefined)
i	COc1ccc(OCCn2c(C(C)(C)O)nc3ccccc32)cc1
i	CC(C)(Oc1ccc(Cl)cc1)C(=O)Nc1cnc(N2CCCC2)nc1
i	CCS(=O)(=O)N1CCCc2cc(NS(=O)(=O)c3cc(Cl)ccc3OC)ccc21
i	CCOc1ccc(C(=O)N2CCN(c3oc(-c4ccccc4Cl)nc3C#N)CC2)cc1
i	COc1ccccc1C(=O)N(C(=O)N1CCCCC1)c1ccc(Cl)cc1
i	COc1cc(-c2c(NC(=O)c3ccccc3)oc3ccccc3c2=O)cc(OC)c1OC
i	O=C(Cc1ccccc1Cl)NCCn1cnc(-c2ccccc2)cc1=O
i	Cc1cc(=O)oc2cc(OCC(O)Cn3c(C)nc4ccccc43)ccc12 (centres undefined)
i	Cc1ncc([N+](=O)[O-])n1CCO
i	O=C(NC1CCCC1)c1sccc1S(=O)(=O)N1CCN(c2cccc(Cl)c2)CC1
i	Cc1ccc2nc(NC(=O)C3CCN(S(=O)(=O)c4ccc(Cl)cc4)CC3)sc2c1

GIRK2 activ	Compound
i	Cc1ccccc1NC(=O)N(CCc1cccs1)C1CC1
i	Cc1ccc2nc(N(CCN3CCOCC3)C(=O)c3ccco3)sc2c1
i	O=C(c1ccc(=O)n(Cc2cccc(F)c2)n1)N1CCN(C(=O)c2ccco2)CC1
i	Cc1ccc(C)c(N2CCN(C(=O)C3CCN(S(=O)(=O)N4CCCC4)CC3)CC2)c1
i	O=C(c1ccc2nsnc2c1)N1CCC(CSC2=NCCS2)CC1
i	O=C(Nc1sc2c(c1-c1nc3ccccc3s1)CCN(Cc1ccccc1)C2)c1cccs1
i	CCOC(=O)c1ccc(NC(=O)CSc2c(C(C)C)cnc3c2c(=O)n(C)c(=O)n3C)cc1
i	COCCCNC(=O)CSc1nnc2c(=O)n(Cc3ccccc3F)ccn12
i	CSc1ccc(/C=C2\C=C(CC(=O)O)c3cc(F)ccc32)cc1
i	Cc1cn2c3c(=O)n(C/C=C/c4ccccc4)c(=O)n(C)c3nc2n1CCCN(C)C
i	O=c1[nH]c2nc(NCc3cccc(Cl)c3)ncc2c(=O)n1-c1ccccc1F
i	COc1cccc(N2CCN(C(=O)Cn3cnc4c([nH]c5cc(OC)c(OC)cc54)c3=O)CC2)c1
i	Cc1cc(NC(=O)C(=O)NCC2(O)CCOc3ccccc32)no1 (centres undefined)
i	O=C(N1CCC(CSCc2ccco2)CC1)C12CC3CC(CC(C3)C1)C2
i	O=C(Cn1c(=O)oc2ccccc21)NCCCOc1cccc2cccnc12
i	CN(C)S(=O)(=O)N1CCN(c2nc(-c3ccsc3)cs2)CC1
i	COc1ccc(-n2nnc(C(=O)NCc3ccc(SC)cc3)c2-c2cccnc2)cc1
i	CC(=O)Nc1ccc(NC(=O)Nc2cn(C)c3ccccc23)cc1
i	Cc1ccccc1CN1CCc2c(OCC(=O)NC3CCCCC3)cccc2C1=O
i	O=S(=O)(NCCOc1ccccc1)c1ccc(Cl)s1
i	CCCS(=O)(=O)c1ccc(NCc2ccccc2OC)nn1
i	CC(C)c1nccn1CC1CCN(S(=O)(=O)c2c(F)cccc2F)CC1
i	CCCCCOc1cccc(C(=O)Nc2nnc(CCOC)o2)c1
i	Cc1oc2cc(OC(=O)C(C)(C)C)ccc2c(=O)c1-c1ccccc1
i	O=C(Cc1cccs1)Nc1oc2ccccc2c(=O)c1-c1ccc2c(c1)OCO2

GIRK2 activ	Compound
i	O=C(CSc1ncnc2sc3c(c12)CCC3)NCC1CCCO1 (centres undefined)
i	COC(=O)Cn1c(=O)c2c(nc(-n3nc(C)cc3C)n2CCc2ccccc2)n(C)c1=O
i	Cc1ccc(NC(=O)c2nnn(-c3ccc(C)c(C)c3)c2-c2cccnc2)c(Cl)c1
i	O=C(CCSc1ccccc1)Nc1cc(-n2cccn2)ncn1
i	CCCS(=O)(=O)N1CCC(c2nnc(-c3ccsc3)o2)CC1
i	CC1CCc2c(sc(NC(=O)CCCS(=O)(=O)Cc3ccccc3)c2C#N)C1 (centres undefined)
i	CCCCCCCN1CC(O)=C(c2nc3ccccc3[nH]2)C1=N
i	O=C(NCCCc1ccccc1)c1nnn(-c2ccc(Cl)cc2)c1-c1cccnc1
